Bioassay records as filed in PubChem.
D2 PAM: human D2 receptor positive allosteric modulation; P14416; DiscoveRx D2 beta-arrestin cells, luminescence, 90 min; 100% = 57 uM dopamine signal; potentiation, % (no concentration beside the values); actives 0.23% (n = 360,000); active = potentiation of 50% or more; inconclusive = 30% to 50%; inactive = 30% or less;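 note: compound concentration not given in the record; tested on top of an EC20 dose of dopamine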
Target sequence (P14416 whole entry, looked up): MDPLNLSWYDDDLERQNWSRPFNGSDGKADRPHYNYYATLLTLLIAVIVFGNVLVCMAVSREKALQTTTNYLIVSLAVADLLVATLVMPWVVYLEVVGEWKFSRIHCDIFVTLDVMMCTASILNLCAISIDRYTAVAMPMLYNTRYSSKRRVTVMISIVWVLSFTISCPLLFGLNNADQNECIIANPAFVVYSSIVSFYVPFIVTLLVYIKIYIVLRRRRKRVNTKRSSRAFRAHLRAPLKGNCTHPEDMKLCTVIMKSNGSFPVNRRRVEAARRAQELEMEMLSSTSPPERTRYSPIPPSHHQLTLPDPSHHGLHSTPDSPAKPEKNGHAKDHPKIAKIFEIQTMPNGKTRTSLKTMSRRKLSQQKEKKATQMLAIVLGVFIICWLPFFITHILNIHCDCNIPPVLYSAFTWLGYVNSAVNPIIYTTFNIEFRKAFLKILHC
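PathHunter beta-arrestin assay in DiscoveRx D2 cells. Compounds were added with an EC20 of dopamine (50 nM final) for 90 min at 37 deg C. Luminescence was read 1 h after detection reagent, with 57 uM dopamine as the EC100 control.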
TRPML1 inh: inhibitors of human TRPML1 channel; TRPML1-inducible cells, Ca2+ dye fluorescence, FDSS; hits give low values; inhibition of EC80 agonist-evoked calcium signal; Q9GZU1; actives 0.02% (n = 390,000); AID 624415; activity change, negative = inhibition, % (concentration not given with the values); in the data active means activity change below about -50%; inconclusive means about -30% to -50%; inactive means above about -30%;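 note: stimulus is agonist 54-4 at its EC80 concentration; % is set by controls: 0 for no effect and ±100 for the full control effect; compound concentration not given in the record; the text of the record puts the active cut at -80%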
Target sequence (Q9GZU1 whole entry, looked up): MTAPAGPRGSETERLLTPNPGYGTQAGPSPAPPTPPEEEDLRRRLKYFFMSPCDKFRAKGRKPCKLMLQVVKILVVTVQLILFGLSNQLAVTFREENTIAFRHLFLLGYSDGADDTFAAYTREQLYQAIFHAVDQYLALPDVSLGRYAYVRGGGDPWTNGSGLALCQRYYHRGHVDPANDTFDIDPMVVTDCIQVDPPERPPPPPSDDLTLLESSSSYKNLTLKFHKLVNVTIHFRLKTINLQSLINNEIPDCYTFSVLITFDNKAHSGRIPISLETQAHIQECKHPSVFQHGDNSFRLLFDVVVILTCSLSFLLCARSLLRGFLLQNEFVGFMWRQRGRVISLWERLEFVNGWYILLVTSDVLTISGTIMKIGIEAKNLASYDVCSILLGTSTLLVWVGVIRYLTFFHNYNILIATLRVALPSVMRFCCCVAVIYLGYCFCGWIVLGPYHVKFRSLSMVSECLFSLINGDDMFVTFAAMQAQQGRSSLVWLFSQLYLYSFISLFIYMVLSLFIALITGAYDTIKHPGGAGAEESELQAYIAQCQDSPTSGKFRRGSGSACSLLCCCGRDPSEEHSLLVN
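Tet-induced TRPML1-DL cells loaded with Ca8 no-wash calcium dye were read kinetically on FDSS. Compound addition was followed by EC80 agonist 54-4 (4 uM final); inhibition was read over 110 s.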
TRPML1 agonist: agonists of human TRPML1 channel | AID 624414 | activation, % (concentration not given with the values) | TRPML1-expressing cells, Ca2+ dye fluorescence, FDSS; host cell line not named in the record; reference of the full effect not given here | actives 0.12% (n = 410,000); in the data active = activation above about 50%; inconclusive = about 30% to 50%; inactive = below about 30%; note: 0% is about no effect; the text of the record puts the active cut at 80%
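In this qHTS format, compounds were pin-transferred onto Ca8-dye-loaded TRPML1-DL cells induced with Tet overnight, and intracellular Ca2+ fluorescence was recorded kinetically for 110 s after a 10 s baseline. A subsequent 4uM final 54-4 (EC80) addition followed by a second 110 s read served as the antagonist phase.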
PINK1 expr mod: changes PINK1 expression | Potency, µM (series often up to 76.6 µM), inactives show at the top dose activation (PINK1 increase), actives largely listed as activators | PINK1 immunofluorescence, high-content cytometry, 24 h | actives 0.2% (n = 410,000) | AID 624263; active = well fitted activation curve with a large enough effect; inconclusive = small, poorly fitted or top-dose-only effect; inactive = flat fitted curve, though single readings scatter; cell line not stated here;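 note: potency is the fitted concentration of half-maximal effect; % of control where 0% means no effect; nearly all actives have a fitted effect of over 65% in size; a mitochondrial uncoupler was the plate control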
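PINK1 protein, normally rapidly degraded, was detected by immunofluorescence after 24 hour compound treatment of a stable cell line. Titration data (5 concentrations) came from laser-scanning cytometry, with CCCP-treated wells as controls.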
Six1-Eya2 blk: inhibitors of human Six1/Eya2 interaction. AlphaScreen GST-Six1/His-Eya2 binding, biochemical; hits give low values; control for the full effect not named in the record. activity change, % (no concentration beside the values). Q15475+O00167. AID 651725. actives 0.56% (n = 360,000); in the data active = activity change below about -65%; inconclusive = about -30% to -65%; inactive = above about -30%; note: % is set by controls: 0 for no effect and ±100 for the full control effect; compound concentration not given in the record
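GST-Six1 + His-Eya2 (5X stock: 250/500 nM); Tris pH 8.0, 300 mM NaCl, 0.05% BSA, 0.02% Tween 20; GSH donor/Ni acceptor beads; 1 h 37 °C dark; AlphaScreen readout.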
D2 ag: human D2 receptor agonism in beta-arrestin assay; P14416; DiscoveRx PathHunter D2 beta-arrestin, luminescence, 90 min; 100% = 57 uM dopamine signal; activation, % (test concentration not listed); actives 0.084% (n = 360,000); AID 624465; in the data active = activation above about 40%; inconclusive = about 15% to 40%; inactive = below about 15%; note: compound concentration not given in the record; the text of the record calls up to 30% inactive
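DiscoveRx PathHunter D2 beta-arrestin cells (2,100/well) attached overnight, then compound-stimulated 90 min at 37 C in HBSS/10 mM HEPES/0.1% Tween-20 buffer; beta-galactosidase complementation read by luminescence after 1 h at ambient temperature. Dopamine 57 uM final (EC100) as control.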
Numbers without * were called inactive; x = no result given; [ ] = remark or other dose.

Below each compound: D2 PAM, TRPML1 inh, TRPML1 agonist, PINK1 expr mod, Six1-Eya2 blk, D2 ag
- c1ccc(-n2nnnc2Sc2n[nH]c(-c3ccncc3)n2)cc1
 : 4.7, 41.2, -0.2, -2.5%, -15.0, -1.2
- CCc1ccc(NC(=O)CCS(=O)(=O)c2cc3c(cc2Cl)NC(=O)CO3)cc1
 : x, -12.3, 1.0, 1.3%, x, x
- CC(=O)Nc1ccc(S(=O)(=O)NCc2nc(-c3ccccc3C)no2)cc1
 : 0.0, 1.6, 1.4, 3.6%, 6.5, -2.2
- CCCc1nn2c(=O)cc(COC(=O)C3CCCCC3)nc2s1
 : x, -7.6, -0.7, -0.9%, x, x
- COc1cc(C(=O)NCC(C)(C)CNC(=O)c2cc(OC)c(OC)c(OC)c2)cc(OC)c1OC
 : 1.3, -6.0, 1.1, 4.7%, 1.8, -1.3
- Cc1ccc(-c2cc(C(F)(F)F)c(C#N)c(=O)[nH]2)cc1
 : -15.3, 15.6, 1.7, -1.3%, 6.3, -0.4
- COc1ccc(F)cc1S(=O)(=O)NCCc1sc2nc(-c3ccc(F)cc3)nn2c1C
 : x, 11.0, 0.8, 1.3%, x, x
- O=C(NN1C(=O)C2C3C=CC(C4CC34)C2C1=O)c1ccccc1Cl (configuration not stated)
 : -0.3, 9.7, 0.1, 1.2%, 0.4, -2.7
- COc1ccccc1C(=O)Nc1nc(-c2cccs2)c(NC(C)=O)s1
 : -0.2, 8.6, 0.5, -1.1%, 10.1, -1.8
- COc1cc2nc(SCC(=O)Nc3cccc(C)c3)n3nc(CCn4c(C)nc5ccccc54)nc3c2cc1OC
 : x, -5.1, 0.7, 5.6%, x, x
- COc1ccc(NC(=O)Nc2nnc(Cc3ccc(F)cc3)s2)cc1
 : -2.5, -18.5, 1.2, 9.0%, 5.7, 2.2
- COc1ccc(Cc2nc3ccc(C(=O)NCCn4cccn4)cc3o2)cc1
 : -5.4, 6.6, 1.1, -1.0%, 2.1, -3.2
- N#Cc1ccccc1OCC(=O)NNC(=O)CCNC(=O)c1ccccc1
 : -10.2, -13.7, 0.5, -0.1%, 20.5, 2.9
- Cc1cc(-c2nc(C)c(C(=O)NNS(=O)(=O)c3cccc(C(F)(F)F)c3)s2)no1
 : -5.7, 6.8, 1.1, 1.4%, 3.4, -3.3
- Cn1c(=O)c(Oc2cc(Cl)cc(Cl)c2)nc2ccccc21
 : -6.1, 11.0, 1.7, 25.7%[38.3 µM], 2.7, 0.1
- COC(=O)c1ccc2c(=O)[nH]c(CSc3nc(C)cs3)nc2c1
 : -1.1, -10.9, -0.2, 6.9%, -2.9, -1.2
- CCOC(=O)C1CCN(C(=O)Nc2ccc(NC(=O)C3CCN(C(=O)OCC)CC3)cc2)CC1
 : -5.0, -6.1, -0.2, 29.4%[38.3 µM], 5.1, -3.5
- COc1ccc(OC)c(-c2csc3nnc(SCC(=O)Nc4ccc(NC(C)=O)cc4)n23)c1
 : 3.0, 3.9, 2.4, -5.2%[38.3 µM], 2.7, 5.5
- CN(CCNC(=O)C1CC(=O)N(c2ccc(F)c(Cl)c2)C1)Cc1ccccc1 (configuration not stated)
 : -13.1, -8.3, -0.2, x, -0.2, -2.8
- COC(=O)c1ccc(CN(Cc2ccc(OC)c(OC)c2)S(=O)(=O)c2cc(C(=O)Nc3cccc(C)c3)ccc2F)cc1
 : x, -8.7, 0.3, -1.2%, x, x

Remaining list, next part
Below each compound: D2 PAM, TRPML1 inh, TRPML1 agonist, PINK1 expr mod, Six1-Eya2 blk, D2 ag
- O=C(c1ccc(S(=O)(=O)Cc2cc(F)ccc2F)c([N+](=O)[O-])c1)N1CCCCC1
 : 20.5, 26.8, -0.2, -4.5%, 4.3, 7.2
- COc1cccc(OC)c1C(=O)N1CCN(Cc2ccccc2C)CC1
 : -10.3, 0.4, -0.4, -1.0%, 7.8, -1.8
- COc1ccc(S(=O)(=O)NC2CCCC2)c(OC)c1
 : -11.5, -3.9, 0.5, 0.9%, 4.0, -1.0
- COc1ccc(C(O)(CCN2CCOCC2)c2ccccc2)cc1 (configuration not stated)
 : -13.7, 11.4, -0.9, -0.6%, 2.4, -2.5
- Cc1cccc(Sc2c([N+](=O)[O-])ncn2C)c1
 : -14.0, 29.3, 1.1, 1.5%, -1.2, -2.4
- O=C(NC(c1ccccc1)c1ccccc1)C1(c2cccs2)CCOCC1
 : -2.7, 4.1, 0.9, 6.0%, -5.2, 1.6
- CCCN(CCO)CCCc1ccccc1
 : -21.5, 5.1, -0.5, -1.2%, -1.9, 0.4
- CCOc1cc(C(c2c(C)[nH][nH]c2=O)c2c(C)[nH][nH]c2=O)ccc1OS(=O)(=O)c1ccc(C)cc1
 : -4.0, -22.3, 0.6, 3.9%[38.3 µM], -5.1, -3.3
- O=C(CCc1nc2ccccc2c(=O)[nH]1)Nc1ccc(F)c([N+](=O)[O-])c1
 : -4.2, 12.0, 0.0, 3.1%, -13.1, 0.5
- O=[N+]([O-])c1cc(-c2ccc(/C=N/c3nc4ccccn4c3-c3ccco3)o2)ccc1Cl
 : 70.4*, 20.7, 0.0, 11.1%, -25.3, 8.5
- COc1ccc(CNc2ccncc2)c(OC)c1OC
 : -2.5, -0.7, -0.1, 0.7%, -2.9, 0.9
- CCOc1ccccc1NC(=O)COC(=O)CC(NC(N)=O)c1ccc(Cl)cc1 (configuration not stated)
 : -19.4, 11.8, 2.5, 0.2%, -4.6, -0.2
- COc1ccc(-c2sc3ccccc3c2C#Cc2cncn2C)cc1
 : -24.3, -9.2, -0.1, -1.3%, -3.9, -6.4
- O=C(/C=C/c1c(Cl)cccc1Cl)NCCc1ccccc1
 : 2.4, 10.1, 3.4, 12.6%, -3.3, -0.7
- CCOC(=O)N1CCN(c2ncc3c(n2)CC(c2ccc(Cl)cc2)CC3=O)CC1 (configuration not stated)
 : x, -1.9, 5.0, 18.2%, x, x
- CCOC(=O)c1sc(NC(=O)CSc2nnc(-c3ccc(OC)cc3)n2CCOC)nc1C
 : -21.2, -5.0, 1.0, x, -3.5, -1.5
- c1ccc(-n2cc(CNCCc3cscn3)c(-c3ccc4c(c3)OCO4)n2)cc1
 : -17.8, 8.4, 0.2, 2.0%, -7.7, -3.7
- CCc1ccc(NC(=O)CSc2nc3ccsc3c(=O)n2CCC(=O)O)cc1
 : -10.9, 3.5, -0.3, -1.9%, 1.4, -0.7
- C[C@@H]1CN([C@@H](C)CO)C(=O)CCCn2nncc2CO[C@H]1CN(C)C(=O)Nc1cccc(Oc2ccccn2)c1
 : x, x, x, 0.6%, 3.5, -2.8
- O=C(c1cccc([N+](=O)[O-])c1)N(c1ccccn1)c1ccccn1
 : -4.3, 4.9, 0.6, 0.4%, -5.2, -6.0

Next section
canonical_smiles,D2 PAM,TRPML1 inh,TRPML1 agonist,PINK1 expr mod,Six1-Eya2 blk,D2 ag
COCCNC(=O)c1ccccc1NC(=O)CSc1ccc(C)cc1,-20.9,16.0,-0.4,0.3%,-0.2,-6.7
Cc1[nH]n(-c2ccccc2)c(=O)c1-c1cccc(Cl)c1,-1.1,1.6,0.5,-0.3%,-2.0,-4.1
COc1ccc(/C=N/NC(=S)Nc2ccccc2)cc1COc1ccc(F)cc1F,-19.6,38.5,0.4,6.2%,-13.7,-10.7
CCc1[nH]nc2c1C1(C(=O)N(Cc3ccccc3)c3ccccc31)C(C#N)=C(N)O2 (configuration not stated),-4.2,-1.2,1.1,-0.6%[38.3 µM],-1.6,-0.4
CCc1nc2ccc(C(=O)Nc3cccc(OC)c3)cn2c1N(CC)Cc1cccc(Br)c1,-6.4,x,-0.7,1.9%,-12.5,-1.9
CC(C)c1ccc(NC(=O)COC(=O)CC2CCCC2)cc1,-1.0,1.4,2.0,1.3%,18.5,3.0
Cc1ccc(/C=C(\C#N)C(=O)Nc2c(C)cccc2C)s1,-11.5,6.2,1.9,1.7%[38.3 µM],-6.2,1.9
O=C(Cn1nc(Cc2cccnc2)c2ccccc2c1=O)NCC1COc2ccccc2O1 (configuration not stated),-4.0,-6.0,1.0,0.4%,-3.8,-1.0
CC(C)C[C@H]1CN([C@@H](Cc2ccccc2)CN2CCC[C@@H]2CN2C(=O)C(=O)NC[C@@H]2Cc2ccc(O)cc2)C(=O)C(=O)N1CC1CCCCC1,-4.7,-15.7,1.6,12.6%,0.5,-2.4
COC(=O)c1ccc2c(=O)n(CCN3CCOCC3)c(SCC(=O)Nc3ccc(OC)cc3OC)nc2c1,-4.3,56.7,4.3,-0.6%,5.9,0.3

Given field by field: two of the compounds above.
CCc1nc2ccc(C(=O)Nc3cccc(OC)c3)cn2c1N(CC)Cc1cccc(Br)c1
  D2 PAM: -6.4
  TRPML1 inh: x
  TRPML1 agonist: -0.7
  PINK1 expr mod: 1.9%
  Six1-Eya2 blk: -12.5
  D2 ag: -1.9
CC(C)c1ccc(NC(=O)COC(=O)CC2CCCC2)cc1
  D2 PAM: -1.0
  TRPML1 inh: 1.4
  TRPML1 agonist: 2.0
  PINK1 expr mod: 1.3%
  Six1-Eya2 blk: 18.5
  D2 ag: 3.0

Limited to TRPML1 agonist, Six1-Eya2 blk and PINK1 expr mod, for 4 of the compounds above:
molecule	TRPML1 agonist	Six1-Eya2 blk	PINK1 expr mod
CC(C)c1ccc(NC(=O)COC(=O)CC2CCCC2)cc1	2.0	18.5	1.3%
Cc1ccc(/C=C(\C#N)C(=O)Nc2c(C)cccc2C)s1	1.9	-6.2	1.7%[38.3 µM]
O=C(Cn1nc(Cc2cccnc2)c2ccccc2c1=O)NCC1COc2ccccc2O1 (configuration not stated)	1.0	-3.8	0.4%
CC(C)C[C@H]1CN([C@@H](Cc2ccccc2)CN2CCC[C@@H]2CN2C(=O)C(=O)NC[C@@H]2Cc2ccc(O)cc2)C(=O)C(=O)N1CC1CCCCC1	1.6	0.5	12.6%

New compounds follow.
canonical_smiles,D2 PAM,TRPML1 inh,TRPML1 agonist,PINK1 expr mod,Six1-Eya2 blk,D2 ag
COc1cc2c(cc1O)CCN(C(=O)CSc1nncn1C)[C@@H]2C,-1.1,11.6,0.2,0.0%,4.8,-2.2
CCn1c(=S)[nH]c2sc3c(c2c1=O)CCCCC3,0.9,3.9,2.2,-0.6%,9.2,-0.1
Nc1cc(N)nc(SCC(=O)N2CCc3ccccc32)n1,-10.6,-4.9,-0.3,-0.9%,0.0,-1.3
COc1ccc2c(c1)c(=O)cc(C)n2CC(=O)NCc1ccco1,-9.2,-7.9,0.7,0.0%,-10.7,-1.7
COc1ccc(S(=O)(=O)N2CCN(CC(O)COc3ccc(CC#N)cc3)CC2)cc1OC (configuration not stated),-0.7,-1.3,-0.7,-0.9%,1.1,-2.6
Cc1ccc(C(=O)N/C(=C\c2ccco2)C(=O)NCCN2CCOCC2)cc1,-12.1,-12.8,-0.1,-0.2%,2.5,-7.3
COc1cccc(/C(C#N)=C/c2c(-c3ccc(Cl)cc3)nc3c(C)cccn23)c1,6.1,92.7,1.5,2.0%,-25.7,-2.5
O=C(NN1C(=O)c2ccccc2C1=O)C1CCCCC1,-23.7,-10.2,-0.2,-1.1%,5.8,-5.4
